Ab BasE inh – BasE siderophore biosynthesis inhibition; purified BasE, fluorescence polarization binding displacement; inhibition, % (concentration not given with the values); hit rate 0.1% among 84,000; AID 485350;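 active means both replicates above 25% with normal brightness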;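 further: 0% = negative plate control signal and 100% = positive plate control signal; stock transfer was 100 nL into about 30 µL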
LANA-nucl inh – inhibitors of KSHV LANA binding to nucleosomes. FITC-LANA1-23 / chicken nucleosome fluorescence polarization; stronger effect = lower value. z-score (test concentration not listed). hit rate 0.3% among 51,000;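 active means both repeat wells score below -2 in polarization z-score versus plate sample wells, excluding overly bright wells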;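 further: 100 nL library stock added to about 30 µL; numbers are from one replicate; some results filed as inactive read as strong as hits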
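test system = FITC-LANA peptide and chicken nucleosomes | amount = 240 nM purified chicken nucleosomes (480 nM peptide binding sites), final | reagent = 50 nM FITC-LANA1-23 probe | medium = TEN-BT buffer, pH 7.5 | doses = single compound addition by pin transfer, 100 nL per well | timing = 10–45 min, room temperature | detection = fluorescence polarization | repeats = duplicate plates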
The depositor's hits bear a star; . = no result given; & = joins results of further samples. A portion of the library. The share of hits here may be higher or lower than overall.

SMILES	Ab BasE inh	LANA-nucl inh
O=C(CCC1COc2ccccc2O1)Nc1ccccc1Cl (configuration not stated)	-0.5	2.19
CNc1nc2ccccc2o1	0.9	1.09
CN(c1cccc(Cl)c1)S(=O)(=O)c1cccc(C(=O)NN2CCOCC2)c1	1.2	.
O=C(/C=C\c1ccco1)Oc1cccc2cccnc12	8.4	-0.111
COc1ccc(-c2cc(C(=O)N3CCOCC3)c3c(-c4ccc(Cl)cc4)[nH]nc3n2)cc1	-5.8	1.93
O=C(COC(=O)c1ccc(S(=O)(=O)Nc2ccccc2)cc1)NCC1CCCO1 (configuration not stated)	-1.1	.
N#Cc1c(-c2ccccc2)n2c(-c3ccccc3)nn(-c3ccccc3)c2nc1=O	3.2	.
N#CCCN(CCc1ccccn1)S(=O)(=O)c1ccc2c(c1)CCO2	1.5	.
CC(=O)Nc1ccc(OCC(O)Cn2ccnc2)cc1 (configuration not stated)	-3.3	2.34
Cc1nn(-c2ccccc2)nc1CNC(=O)c1cccs1	0.2	.
O=c1c2ccc(-c3nnc(SCc4cn5ccccc5n4)o3)cc2nc2n1CCCCC2	-2.3	.
Cn1ccsc1=NC(=O)/C=C/c1cc(Cl)c2c(c1)OCCCO2	-2.5	.
N#C/C(=C\c1ccc(-c2ccccc2Br)o1)C(=O)N1CCOCC1	-0.3	1.57
CCn1cnc2sc(C(=O)Nc3ccccc3)c(C)c2c1=O	-4.0	0.938
CCCC12CN3CC(CCC)(CN(C1)C31C(=O)Nc3ccccc31)C2=O (configuration not stated)	-4.5	2.03
CC(c1cccs1)n1nccc1NC(=O)c1cnc2ccccc2n1 (configuration not stated)	1.5	.
Cc1cc(C)c(CN(C)C)c(O)c1	-2.0	.
O=c1c2ccccc2c(/C=N/c2ccnn2Cc2ccco2)c(O)n1-c1cccc(C(F)(F)F)c1	-2.1	.
CC(C)Oc1ccc(C(=O)Nc2ccnn2C2CCCCC2)cc1	2.0	.
COc1ccc2c(c1)CCc1c(C(=O)N3CCCCC3)noc1-2	-1.0	-0.681

Reprinted at random: four records from the list
SMILES	Ab BasE inh	LANA-nucl inh
COc1ccc2c(c1)CCc1c(C(=O)N3CCCCC3)noc1-2	-1.0	-0.681
N#C/C(=C\c1ccc(-c2ccccc2Br)o1)C(=O)N1CCOCC1	-0.3	1.57
N#CCCN(CCc1ccccn1)S(=O)(=O)c1ccc2c(c1)CCO2	1.5	.
O=c1c2ccc(-c3nnc(SCc4cn5ccccc5n4)o3)cc2nc2n1CCCCC2	-2.3	.

(further entries)
SMILES	Ab BasE inh	LANA-nucl inh
CCSc1nnc(CCNC(=O)NC2CCCCC2)n1C	1.9	-0.419
O=C(CN1C(=O)c2cccnc2Sc2ccccc21)N1CCN(c2ccccc2F)CC1	-0.3	0.954
O=C(C1CCN(C2CC(=O)N(c3ccc4c(c3)OCO4)C2=O)CC1)N1CCCCCC1 (configuration not stated)	2.9	0.266
c1nc(NCc2ccc3c(c2)OCO3)c2ccsc2n1	5.1	.
O=C1CC2CCC(CN1)N2CC(=O)Nc1ccccc1C(F)(F)F (configuration not stated)	0.6	0.289
O=C(CSc1n[nH]c(=O)n1Cc1ccco1)Nc1ccccc1Cl	-0.5	0.387
CC(C)C/C=C1\CC/C(=C\c2ccc(N(C)C)cc2)C1=O	-41.8	5.06
Cc1ccc(-c2nn(CCC(=O)Nc3cccc(C(F)(F)F)c3)c(=O)c3ccccc23)cc1	1.6	.
C=CCOc1ccc(-c2ccc(C#N)cc2)cc1	1.0	.
Cc1cc(F)ccc1S(=O)(=O)Nc1ccccc1C(=O)Nc1cccnc1	23.3	.
Cc1ccc(S(=O)(=O)NCC(Sc2nnc(-c3cccs3)n2C2CC2)c2ccccc2)cc1 (configuration not stated)	-0.8	.
Cc1noc(C)c1CSc1nc2ccccc2c(=O)n1CCc1ccc(S(N)(=O)=O)cc1	0.9	.
CC(C)N(C(=O)c1noc2c1CCc1sccc1-2)C1CCCCC1	0.3	-0.477
CCc1ccc(N2NC(=O)/C(=C/c3ccc4c(c3)n(C)c(=O)n4C)C2=O)cc1	1.9	.
CCOC(=O)c1c(N)n(CC(C)NC(=O)COc2ccccc2)c2nc3ccccc3nc12 (configuration not stated)	0.0	.
CCC1CN(C(=O)n2ccnc2)c2ccccc2O1 (configuration not stated)	-0.2	0.639
O=C(O)c1ccc(-c2ccc(C(=O)O)s2)s1	2.5	-0.591
CCc1c(C)nc(SCC(=O)Nc2ccc3c(c2)OCCO3)[nH]c1=O	1.0	0.816
O=C(Cn1c(=O)cnc2ccccc21)NCC(F)(F)F	0.1	.
NC(=O)Cn1nc(-c2ccc(Cl)cc2)ccc1=O	-1.3	-1.1
COC(=O)C(NS(=O)(=O)c1ccc(F)cc1)c1ccccc1 (configuration not stated)	0.2	1.52
COc1ccc(-c2c(C)oc3cc(OCC(O)CN4CCC(C(N)=O)CC4)ccc3c2=O)cc1 (configuration not stated)	-3.7	.
COC(=O)[C@@H]1CC(O)CN1S(=O)(=O)c1ccc(C)cc1 (some centres not stated)	-5.6	.
Cc1oc2c(CN3CCCCC3)c(O)ccc2c(=O)c1Oc1ccc(Cl)cc1	2.0	.
CCC(NC(=O)c1ccccc1NC(=O)C(C)(C)C)C(=O)N1CCCC1 (configuration not stated)	-2.0	.
O=C(NCC(=O)c1ccccc1)/C(=C/c1cccs1)c1ccccc1	.	-1.14
Cc1c(N=c2c(=O)c3ccccc3c2=O)c(=O)n(-c2ccccc2)n1C	-4.0	.
O=C(CN1C(=O)c2cccnc2Oc2ccc(Cl)cc21)NCc1ccccc1	0.5	-0.844
CCC(=O)Nc1sccc1C(N)=O	0.9	0.619
Fc1cccc(F)c1C=Nc1ccc2c(c1)OCCO2	1.0	.
CC1=NN(C(C#N)c2ccccc2)C(C)(C)C1 (configuration not stated)	-2.0	0.747
CCn1cc(/C=C(\NC(=O)c2ccccc2F)C(=O)N2CCN(C)CC2)c2ccccc21	0.2	-0.785
CC(C)(C)CC(=O)Nc1ccc2c(c1)OCCO2	2.2	0.708
Cc1ccc(C)c(C(=O)O)c1	-1.1	.
C=Cn1c(C(=O)O)cc(CC)c1-c1ccccc1	-1.0	0.277
CCCC/C(C)=N/n1c(-c2ccco2)csc1=NC	-5.0	.
Cc1ccc(NC(=O)COC(=O)c2cnc3sccn3c2=O)cc1C	-0.6	.
CCOC(=O)c1sc(NC(=NC)c2ccco2)cc1C	-0.8	.
Nc1nc(C23CC4CCC(CC(C4)C2)C3)cs1	-1.1	.
COc1cc(CCC(=O)NCc2ccc(S(N)(=O)=O)cc2)cc(OC)c1OC	-1.4	.

Given with values under each structure: part of the list above.
Values in the order: Ab BasE inh	LANA-nucl inh
- Cc1ccc(NC(=O)COC(=O)c2cnc3sccn3c2=O)cc1C
  -0.6	.
- CCOC(=O)c1sc(NC(=NC)c2ccco2)cc1C
  -0.8	.

(continued)
SMILES	Ab BasE inh	LANA-nucl inh
O=C(Nc1ccccc1F)NC1CCN(Cc2nnnn2Cc2ccc(F)cc2)CC1	-1.2	-0.46
O=C1c2ccccc2C(=O)c2c1oc1c3c(ccc21)OCN(CCC1=CCCCC1)C3	1.1	.
Cn1nc(CC(=O)Nc2ccc(N3CCN(C(=O)OC(C)(C)C)CC3)cc2)c2ccccc2c1=O	0.2	-0.55
CN(C)Cc1ccc(CNC(=O)c2ccc[nH]2)cc1	0.7	.
Cc1ccc(CNCc2cccn2-c2nc3ccccc3s2)cc1	-5.3	-1.19
Cc1ccc(S(=O)(=O)NCc2ccc(/C=N/NC(=O)c3ccco3)o2)cc1	2.8	-0.833
COC(=O)C1=C(CNCCc2ccccc2)NC(=O)NC1c1ccc(OC)c(OC)c1 (configuration not stated)	-0.8	-0.361
N#CC(C(=O)c1ccc(F)cc1)c1ccccn1 (configuration not stated)	-1.3	.
COc1cccc2c(=O)cc(C)[nH]c12	-1.7	0.595
Cc1cccc(C(=O)OCC(=O)Nc2ccc3[nH]c(=O)[nH]c3c2)c1C	0.9	.
COc1cc(C(=O)Nc2cc(C)c3c(=O)oc4ccccc4c3n2)cc(OC)c1OC	-4.1	1.38
Cn1c(Cc2nnc(Nc3ccc(S(=O)(=O)N4CCOCC4)cc3)s2)nc2ccccc21	-2.2	.
CC1(C)C(=O)Nc2ccccc2N1C(=O)CSc1nc2ccccc2[nH]1	-0.8	.
CCCc1nc2nc(C)cc(NCCN3CCN(c4cccc(Cl)c4)CC3)n2n1	-2.6	1.15
COc1ccc(CN(C)C(=O)c2cccc(S(=O)(=O)N3CCOCC3)c2)cc1F	2.6	.
CN1CCN(/N=C/C2=C(O)CC(c3ccccc3)CC2=O)CC1 (configuration not stated)	-1.9	0.827
CCOC(=O)/C(C#N)=N\Nc1cc(C(N)=O)cc(C(N)=O)c1	4.0	-1.92
COc1ccc(CCN=C2SCC(=O)N2Cc2ccccc2)cc1OC	2.8	.
COC(=O)c1ccc(OCc2ccc(Cl)nc2)cc1	.	1.22
Cc1coc(C)c1C(=O)CC1(O)C(=O)Nc2cc(Cl)cc(Cl)c21 (configuration not stated)	1.2	-0.248
CC(=O)N1c2ccccc2C(=O)C1N(Cc1ccccc1)C(C)C (configuration not stated)	-0.1	.
CCCCN(C)C(=O)c1cn(C)c2ccc(S(=O)(=O)N(CC)CC)cc2c1=O	-1.7	3.21
CC1=CC(=O)OC1Cc1ccc2ccccc2n1 (configuration not stated)	0.6	.
Oc1c(Cl)cc(Cl)cc1C1Nc2cccc3cccc(c23)N1	2.1	.
COC(=O)c1cc(-c2cccnc2)nn1-c1nc(C)cc(C)n1	-0.3	.
O=C(Nc1ccccc1F)c1cc2c(Cl)ccc3c2n1CCO3	0.1	0.14
Cc1nc(C)c(C(=O)N/N=C/c2cc(Br)ccc2O)s1	1.5	.
C=CCn1c(SCC(=O)Nc2ccc3c(c2)OCO3)nnc1-c1ccccc1F	1.2	.
Cn1c(C(=O)c2ccccc2)nc2ccccc21	2.3	-0.542
CCOc1cc(C)c(Cl)cc1S(=O)(=O)N1CCN(CC)CC1	-5.3	2.4
O=C(CCC1CCCCC1)NC1C=CS(=O)(=O)C1 (configuration not stated)	1.3	.
N#Cc1c(N)nc2c(c1-c1cccnc1)CCCCCC2	1.8	-0.911
O=c1oc(-c2cccs2)nc2c(Br)cc(Br)c(F)c12	4.3	.
N#Cc1cccc(NC(=O)C2CCCC2)c1	-0.3	.
O=c1cc(Cn2nnc(-c3ccccc3)n2)[nH]c(=O)[nH]1	-2.2	.
COCC(C)n1c(COc2ccccc2F)nnc1SC/C(O)=C(\C(=O)OC)c1nc2ccccc2[nH]1 (configuration not stated)	0.7	.
CSc1nc(Nc2ccc(F)cc2)c(C#N)c(-c2ccccc2)n1	-0.1	-2.01
Cn1c(=O)c(C(=O)NC2CCCCCC2)c(O)c2ccccc21	0.3	0.0695
COc1cccc(-c2cc(=O)c3ccccc3o2)c1N	0.7	0.367
O=C(CCCSc1ccccc1)Nc1ccc2c(c1)OCO2	0.2	.

Already shown: an excerpt of the list.
SMILES	Ab BasE inh	LANA-nucl inh
Cn1c(=O)c(C(=O)NC2CCCCCC2)c(O)c2ccccc21	0.3	0.0695
COc1cccc(-c2cc(=O)c3ccccc3o2)c1N	0.7	0.367
O=C(CCCSc1ccccc1)Nc1ccc2c(c1)OCO2	0.2	.

More results:
SMILES	Ab BasE inh	LANA-nucl inh
O=C(CCCOc1ccccc1)Nc1ncn[nH]1	2.4	0.132
COc1cccc(-c2[nH]nc(SC)c2C#N)c1	1.2	0.302
CC(=O)Nc1ccc(-n2c(C)nc(=O)c(-c3ccccc3)c2C)cc1	2.6	.
COc1ccc(CCNC(=O)C2CC(=O)N(C3CCCC3)C2)cc1OC (configuration not stated)	-0.6	-2.01
CCNC(=S)N1CCC(NC(=O)C23CC4CC(CC(C4)C2)C3)CC1	-1.8	0.608
O=S(=O)(c1ccc(Cl)cc1)N1CN(C2CCCC2)c2nc3ccccc3nc21	2.6	-1.17
CC(C)Cc1csc2ncnc(NCCO)c12	-1.5	.
CCCCN1COc2c(cc(Cl)c3cccnc23)C1	-2.8	.
O=C(N/N=C/c1ccc(O)c(O)c1O)c1ccc(NS(=O)(=O)c2ccc(Br)cc2)cc1	3.0	.
CCN1CCN(c2ccc(Cl)cc2NC(=O)C2CCCN2C(=O)c2cccs2)CC1 (configuration not stated)	1.3	.
CCCCOc1cccc(-c2nnc(NC(=O)OC)s2)c1	-1.8	-2.53
CC1=CC(C)(C)N(C(=O)CSc2ncccn2)c2ccc(C)cc21	0.8	0.536
Cc1nn(-c2ccccc2)c(C)c1C(=O)NCC1(N(C)C)CCCCC1	-1.7	.
C[C@]12CCC(=O)C=C1CCC1C2[C@@H](O)C[C@@]2(C)C1CC[C@]2(O)C(=O)COC(=O)CCC(=O)O (some centres not stated)	0.1	0.305&1.22
O=C1N=C(N2CCOCC2)SC1=C1CCCCC1	0.7	0.184
O=C(OCC(=O)N1CCCc2ccccc21)c1ccccc1Cl	0.4	.
Cc1ccc(Nc2nc3nonc3nc2NC2C3CC4CC(C3)CC2C4)cc1C (configuration not stated)	1.3	-0.69
Cn1ncc(Cl)c1C(=O)O	-1.1	-0.544
COc1ccc(S(=O)(=O)N2CCN(C(=O)Cc3ccsc3)CC2)cc1	-0.2	.
CC1=CCC2C(=O)N(c3cccc(C(=O)N(C)C4CCCCC4)c3)C(=O)C2C1 (configuration not stated)	-1.4	1.66
O=C(NCCCN1CCOCC1)c1ccc(CS(=O)(=O)Cc2ccc(Cl)cc2)o1	-0.4	-1.11

Gathered by group, the compounds so far with a tert-butyl group.
SMILES	Ab BasE inh	LANA-nucl inh
CCC(NC(=O)c1ccccc1NC(=O)C(C)(C)C)C(=O)N1CCCC1 (configuration not stated)	-2.0	.
CC(C)(C)CC(=O)Nc1ccc2c(c1)OCCO2	2.2	0.708
Cn1nc(CC(=O)Nc2ccc(N3CCN(C(=O)OC(C)(C)C)CC3)cc2)c2ccccc2c1=O	0.2	-0.55
